Screening data (PubChem)
UUG fidelity: alters start codon recognition fidelity in yeast; S. cerevisiae UUG-firefly luciferase reporter, luminescence/redox ratio; activity score, % at 18.7 µM; 0.13% of 350,000 active; AID 602363;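 active = replicate mean at a twofold rise or more, about +100% in these data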;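 note: firefly luciferase made from a UUG start codon reports start codon fidelity; reporter light over untreated wells divided by growth signal over untreated wells; some hits fall short of that in this replicate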
Env fusion inh: blocks HIV Env-driven cell-cell fusion. HeLa-JRFL Env/CEM21 cell fusion, luciferase. inhibition, % at 12.3 µM. 1.1% of 360,000 active. AID 651610;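 active = mean replicate inhibition score of at least 50 and every replicate individually at or above 50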;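 note: 0% = plate neutral controls and 100% = maraviroc near 300 nM; one replicate is shown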
* = called active by the depositor; [ ] = dose if it differs, or a comment.

no.	Structure	UUG fidelity	Env fusion inh
1	COc1ccccc1-c1ccc2c(c1)O[C@H](CN(C)S(=O)(=O)c1ccccc1)[C@@H](C)CN([C@H](C)CO)S2(=O)=O	-8.1	19.8[16.7 µM]
2	O=C(N[C@H]1CC[C@H](CCNS(=O)(=O)c2ccccc2)O[C@H]1CO)c1cnccn1	-0.9	-15.7[16.7 µM]
3	CN(C)C(=O)C[C@H]1CC[C@H](NC(=O)c2ccc(F)cc2)[C@@H](CO)O1	-3.1	-12.5[16.7 µM]
4	C[C@H]1CN([C@@H](C)CO)C(=O)c2cc(C#Cc3cccnc3)cnc2O[C@@H]1CN(C)C(=O)CC1CC1	19.4	-14.0[16.7 µM]
5	COc1cccc(S(=O)(=O)N(C)C[C@H]2Oc3ncc(C#CCN(C)C)cc3C(=O)N([C@H](C)CO)C[C@@H]2C)c1	9.3	11.2[16.7 µM]
6	C[C@@H]1CCCCO[C@@H](CN(C)S(=O)(=O)c2cccs2)[C@H](C)CN([C@@H](C)CO)C(=O)c2cc(NC(=O)Nc3ccc(C(F)(F)F)cc3)ccc2O1	-1.5	26.0[16.7 µM]
7	C[C@@H]1CCCCO[C@H](CN(C)C(=O)NC2CCCCC2)[C@H](C)CN([C@@H](C)CO)C(=O)c2cc(NC(=O)Nc3ccc4c(c3)OCO4)ccc2O1	-5.1	0.4[16.7 µM]
8	CCCNC(=O)Nc1ccc2c(c1)C(=O)N(C)C[C@H](OC)[C@@H](C)CN(C(C)=O)[C@H](C)CO2	-5.4	-7.3[16.7 µM]
9	C[C@H](CO)N1C[C@H](C)[C@H](CN(C)C(=O)Nc2ccc3c(c2)OCO3)Oc2ncc(C#Cc3ccccc3)cc2C1=O	8.8	13.9[16.7 µM]
10	C[C@@H]1CN([C@@H](C)CO)C(=O)c2cc(C#CCc3ccccc3)cnc2O[C@@H]1CN(C)Cc1ccccn1	-16.0	11.7[16.7 µM]
11	CC(C)NC(=O)N(C)C[C@@H]1Oc2ccc(NC(=O)Nc3cccc4ccccc34)cc2C(=O)N([C@H](C)CO)C[C@@H]1C	20.3	-23.6[16.7 µM]
12	C[C@@H]1CCCCO[C@H](CN(C)C(=O)Cc2ccccc2)[C@@H](C)CN([C@@H](C)CO)C(=O)c2cc(NS(C)(=O)=O)ccc2O1	21.1	-11.4[16.7 µM]
13	O=C(O)C[C@@H]1C[C@@H]2c3cc(NC(=O)c4ccc5c(c4)OCO5)ccc3O[C@@H]2[C@H](CO)O1	-31.4	-0.3[16.7 µM]
14	C[C@@H]1CCCCO[C@H](CN(C)Cc2ccccc2)[C@H](C)CN([C@@H](C)CO)C(=O)c2cc(NC(=O)Nc3ccccc3)ccc2O1	13.7	16.6[16.7 µM]
15	CC(C)NC(=O)Nc1ccc2c(c1)C(=O)N([C@@H](C)CO)C[C@H](C)[C@@H](CN(C)S(=O)(=O)c1ccc(F)cc1)OCCCC[C@@H](C)O2	6.6	-38.5[16.7 µM]
16	CO[C@H]1CN(C)C(=O)c2ccc(NC(=O)Nc3ccc(Cl)cc3)cc2OC[C@@H](C)N(C)C[C@H]1C	-5.0	2.1[16.7 µM]
17	C[C@@H]1CN([C@@H](C)CO)S(=O)(=O)c2ccc(-c3ccc(C#N)cc3)cc2O[C@@H]1CN(C)Cc1cccc(F)c1	5.8	17.1[16.7 µM]
18	CC(C)CC#Cc1cnc2c(c1)C(=O)N([C@H](C)CO)C[C@H](C)[C@@H](CN(C)S(C)(=O)=O)O2	20.4	-18.2[16.7 µM]
19	CO[C@@H]1CN(C)C(=O)c2ccc(NS(=O)(=O)c3ccccc3Cl)cc2OC[C@@H](C)NC[C@@H]1C	1.7	-14.4[16.7 µM]
20	CCS(=O)(=O)Nc1ccc2c(c1)C(=O)N(C)C[C@H](OC)[C@@H](C)CN(C(C)=O)[C@@H](C)CO2	2.0	-44.7[16.7 µM]
21	C[C@@H]1CN([C@@H](C)CO)C(=O)c2cccc(NC(=O)c3ccncc3)c2O[C@@H]1CN(C)Cc1ccc2c(c1)OCO2	-26.1	5.1[16.7 µM]
22	CNC[C@H]1OCCCC[C@@H](C)Oc2ccc(NC(=O)CCCN(C)C)cc2C(=O)N([C@H](C)CO)C[C@@H]1C	-6.9	6.2[16.7 µM]
23	C[C@@H]1CCCCO[C@@H](CN(C)S(=O)(=O)c2ccc(Cl)cc2)[C@H](C)CN([C@H](C)CO)C(=O)c2cc(NC(=O)CCC(F)(F)F)ccc2O1	-6.6	5.2[16.7 µM]
24	COC(=O)C[C@H]1C=C[C@H](NC(=O)c2ccccc2)[C@H](CO)O1	-11.1	-5.0[16.7 µM]

Nos. 2 through 5, quoted:
no.	Structure	UUG fidelity	Env fusion inh
2	O=C(N[C@H]1CC[C@H](CCNS(=O)(=O)c2ccccc2)O[C@H]1CO)c1cnccn1	-0.9	-15.7[16.7 µM]
3	CN(C)C(=O)C[C@H]1CC[C@H](NC(=O)c2ccc(F)cc2)[C@@H](CO)O1	-3.1	-12.5[16.7 µM]
4	C[C@H]1CN([C@@H](C)CO)C(=O)c2cc(C#Cc3cccnc3)cnc2O[C@@H]1CN(C)C(=O)CC1CC1	19.4	-14.0[16.7 µM]
5	COc1cccc(S(=O)(=O)N(C)C[C@H]2Oc3ncc(C#CCN(C)C)cc3C(=O)N([C@H](C)CO)C[C@@H]2C)c1	9.3	11.2[16.7 µM]

Following part
no.	Structure	UUG fidelity	Env fusion inh
25	Cc1noc(C)c1S(=O)(=O)Nc1ccc2c(c1)C(=O)N([C@H](C)CO)C[C@H](C)[C@H](CN(C)C(=O)Nc1ccc(C(F)(F)F)cc1)O2	-9.7	12.5[16.7 µM]
26	COc1ccc(CN(C)C[C@@H]2OCCCC[C@@H](C)Oc3ccc(NC(=O)Cc4ccccc4)cc3C(=O)N([C@@H](C)CO)C[C@H]2C)cc1	28.9	-5.4[16.7 µM]
27	COCC#Cc1ccc2c(c1)O[C@H](CN(C)C(=O)CN(C)C)[C@H](C)CN([C@H](C)CO)S2(=O)=O	-2.9	-17.6[16.7 µM]
28	C[C@H]1CN([C@@H](C)CO)C(=O)c2cc(-c3ccncc3)cnc2O[C@@H]1CN(C)C(=O)NC1CCCC1	-8.5	7.6[16.7 µM]
29	CC(C)N1C(=O)[C@@]2(Cc3ccccc31)c1ccccc1C(=O)N(Cc1ccccc1Cl)[C@H]2c1ccc(CO)cc1	44.6	2.7[16.7 µM]
30	CCCC(=O)Nc1ccc2c(c1)C(=O)N(C)[C@@H]1CC[C@H](CC(=O)NCc3ccccc3)O[C@@H]1CO2	1.2	-7.2[16.7 µM]
31	C[C@@H]1CN([C@@H](C)CO)C(=O)Cc2cc(NC(=O)Cc3ccccc3)ccc2O[C@H]1CN(C)Cc1ccc2c(c1)OCO2	7.2	-25.2[16.7 µM]
32	CC(C)CC#Cc1ccc2c(c1)O[C@H](CN(C)S(C)(=O)=O)[C@@H](C)CN([C@@H](C)CO)S2(=O)=O	14.4	-14.3[16.7 µM]

33. COC(=O)C[C@H]1CC[C@H]2[C@H](COc3ccc(NC(=O)c4ccccc4OC)cc3C(=O)N2C)O1
34. CCCNC(=O)C[C@@H]1CC[C@H]2[C@@H](COc3ccc(NC(=O)c4ccc(Cl)cc4)cc3C(=O)N2C)O1
35. C[C@@H]1CCCCO[C@@H](CN(C)S(=O)(=O)c2cccs2)[C@@H](C)CN([C@H](C)CO)C(=O)c2cc(NC(=O)C3CCCCC3)ccc2O1
36. Cc1noc(C)c1S(=O)(=O)Nc1ccc2c(c1)C(=O)N([C@@H](C)CO)C[C@@H](C)[C@H](CN(C)C)OCCCC[C@@H](C)O2
37. C[C@H](CO)N1C[C@H](C)[C@H](CN(C)Cc2ccccn2)Oc2ncc(C#CCN(C)C)cc2C1=O
38. O=C(N[C@@H]1CC[C@H](CCNS(=O)(=O)c2ccccc2)O[C@H]1CO)c1cnccn1
39. N#C[C@H]1[C@@H](c2ccc(C#CC3CCCCC3)cc2)[C@H](CO)N1C(=O)Cc1ccccn1
40. COc1ccc([Si](C)(C)[C@H]2[C@H](CCO)O[C@@]3(C(=O)N(Cc4cccc(NC(C)=O)c4)c4ccccc43)[C@@H]2C)cc1

assay / compound | 33 | 34 | 35 | 36 | 37 | 38 | 39 | 40
UUG fidelity | 12.4 | 0.2 | -11.0 | 14.2 | -15.6 | -8.9 | -1.0 | 2.6
Env fusion inh | -2.8[16.7 µM] | 14.2[16.7 µM] | -24.7[16.7 µM] | -7.9[16.7 µM] | -10.7[16.7 µM] | 15.4[16.7 µM] | 2.5[16.7 µM] | -3.6[16.7 µM]

41. C[C@H](O)C#Cc1cnc2c(c1)C(=O)N([C@@H](C)CO)C[C@@H](C)[C@H](CN(C)Cc1cccc(F)c1)O2
42. COc1ccc(S(=O)(=O)N(C)C[C@@H]2Oc3ccc(NC(=O)C4CCCCC4)cc3C(=O)N([C@H](C)CO)C[C@@H]2C)cc1
43. Cc1noc(C)c1NC(=O)N(C)C[C@@H]1OCCCC[C@H](C)Oc2ccc(NS(C)(=O)=O)cc2C(=O)N([C@@H](C)CO)C[C@H]1C
44. O=C(N[C@H]1CC[C@H](CCn2cc(C3(O)CCCC3)nn2)O[C@H]1CO)C1CCCC1
45. COc1ccc(NC(=O)Nc2ccc3c(c2)CC(=O)N([C@@H](C)CO)C[C@@H](C)[C@@H](CN(C)S(=O)(=O)c2c(C)noc2C)O3)cc1
46. C[C@H]1CN([C@@H](C)CO)C(=O)c2cc(C#CCc3ccccc3)cnc2O[C@@H]1CN(C)C(=O)C1CCOCC1
47. C[C@@H]1CCCCO[C@@H](CN(C)C(=O)Nc2cccc3ccccc23)[C@H](C)CN([C@@H](C)CO)C(=O)c2cc(NS(=O)(=O)c3ccccc3)ccc2O1
48. C[C@@H]1CCCCO[C@H](CN(C)C(=O)Nc2ccc(C(F)(F)F)cc2)[C@@H](C)CN([C@@H](C)CO)C(=O)c2cc(NC(=O)NC3CCCCC3)ccc2O1

assay / compound | 41 | 42 | 43 | 44 | 45 | 46 | 47 | 48
UUG fidelity | 2.9 | 6.4 | -2.3 | -3.4 | 16.7 | 3.0 | -11.4 | -4.7
Env fusion inh | 10.9[16.7 µM] | -51.7[16.7 µM] | -33.3[16.7 µM] | 18.1[16.7 µM] | -13.9[16.7 µM] | -6.6[16.7 µM] | -18.5[16.7 µM] | 10.7[16.7 µM]

49. C[C@@H]1CCCCO[C@H](CN(C)C(=O)Nc2ccc(F)cc2)[C@@H](C)CN([C@H](C)CO)C(=O)c2cc(NC(=O)CCC(F)(F)F)ccc2O1
50. CN1C(=O)c2cc(NC(=O)Nc3ccccc3Cl)ccc2OC[C@@H]2O[C@@H](CC(=O)O)CC[C@@H]21
51. C[C@@H]1CN([C@@H](C)CO)C(=O)c2cccc(NS(=O)(=O)c3cccs3)c2O[C@@H]1CN(C)Cc1ccccc1
52. CCC(=O)Nc1ccc2c(c1)C(=O)N(C)[C@@H]1CC[C@@H](CC(=O)Nc3cccc(OC)c3)O[C@H]1CO2
53. COCC(=O)N(C)C[C@H]1Oc2ncc(Br)cc2C(=O)N([C@H](C)CO)C[C@@H]1C
54. C[C@H](CO)N1C[C@H](C)[C@@H](CN(C)Cc2ccc(Cl)c(Cl)c2)Oc2c(NC(=O)c3cnccn3)cccc2C1=O
55. C[C@@H]1CN([C@@H](C)CO)C(=O)c2cccc(N(C)C)c2O[C@H]1CN(C)S(=O)(=O)c1cn(C)cn1
56. CNC[C@H]1Oc2c(NC(=O)Nc3ccc(OC)cc3)cccc2C(=O)N([C@H](C)CO)C[C@@H]1C

assay / compound | 49 | 50 | 51 | 52 | 53 | 54 | 55 | 56
UUG fidelity | -1.1 | -18.4 | -6.9 | 9.4 | 3.6 | -12.7 | -7.2 | 2.6
Env fusion inh | -32.0[16.7 µM] | -12.5[16.7 µM] | 0.0[16.7 µM] | -17.4[16.7 µM] | -6.8[16.7 µM] | 15.3[16.7 µM] | -4.2[16.7 µM] | -18.8[16.7 µM]

57. N#C[C@H]1[C@H](c2ccccc2)[C@@H](CO)N1C(=O)Cc1ccccn1
58. C[C@@H]1CCCCO[C@H](CN(C)S(C)(=O)=O)[C@@H](C)CN([C@@H](C)CO)C(=O)c2cc(NC(=O)Cc3ccccc3)ccc2O1
59. C[C@@H]1CN([C@@H](C)CO)C(=O)c2cc(NS(=O)(=O)c3cccs3)ccc2O[C@@H]1CN(C)Cc1ccc(C(=O)O)cc1
60. Cc1noc(C)c1NC(=O)Nc1ccc2c(c1)CC(=O)N([C@H](C)CO)C[C@H](C)[C@@H](CN(C)Cc1ccc(C(=O)Nc3ccccc3N)cc1)O2
61. C[C@H]1CCCCO[C@@H](CN(C)S(=O)(=O)c2cn(C)cn2)[C@@H](C)CN([C@@H](C)CO)C(=O)c2cc(NC(=O)CCC(F)(F)F)ccc2O1
62. C[C@@H]1CCCCO[C@H](CN(C)C(=O)NC2CCCCC2)[C@@H](C)CN([C@H](C)CO)C(=O)c2cc(NS(=O)(=O)c3ccc(Cl)cc3)ccc2O1
63. CC(=O)N(C)C[C@@H]1Oc2cc(Br)ccc2S(=O)(=O)N([C@H](C)CO)C[C@H]1C
64. CCNC(=O)C[C@@H]1CC[C@H]2[C@@H](COc3ccc(NC(=O)Nc4ccccc4C)cc3C(=O)N2C)O1
65. CN(C)CC(=O)N1[C@@H](C#N)[C@H](c2ccc(C#CC3CCCCC3)cc2)[C@@H]1CO
66. C[C@@H]1CN([C@@H](C)CO)C(=O)Cc2cc(NC(=O)Cn3cnnn3)ccc2O[C@H]1CN(C)C(=O)Nc1ccc(C(F)(F)F)cc1
67. CCCNC(=O)C[C@@H]1C[C@@H]2c3cc(NS(=O)(=O)c4ccccc4)ccc3O[C@@H]2[C@@H](CO)O1

assay / compound | 57 | 58 | 59 | 60 | 61 | 62 | 63 | 64 | 65 | 66 | 67
UUG fidelity | 11.2 | 1.2 | -6.6 | -1.4 | 12.4 | -1.5 | 0.9 | -3.6 | 15.2 | 24.9 | -0.5
Env fusion inh | 12.9[16.7 µM] | -0.1[16.7 µM] | 9.9[16.7 µM] | -11.0[16.7 µM] | 30.3[16.7 µM] | 28.8[16.7 µM] | -11.2[16.7 µM] | 10.7[16.7 µM] | 11.2[16.7 µM] | -16.0[16.7 µM] | 5.2[16.7 µM]

Some of the compounds tested. The share of hits here may be higher or lower than overall.
